# Screening results (PubChem)
# Marburg entry inh – qHTS for inhibitors of binding or entry into cells for Marburg Virus; Potency, µM (top dose mostly 37.8 µM), for inactives: at the highest dose activity change, negative = inhibition, hits mostly inhibitors; 300,000 tested, 1.8% active; Marburg virus pseudotyped entry inhibition, cell reporter; control for the full effect not named in the record; about a third of the inactives were read at about 46 µM; AID 540276, 2011; active = well fitted inhibition curve with a large enough effect; inconclusive = small, poorly fitted or top-dose-only effect, or effect the other way; inactive = flat fitted curve, though single readings scatter; tested in HEK293 cells; about a fifth of its hits are not listed in these tables; note: % is set by controls: 0 for no effect and ±100 for the full control effect; luciferase read-out
# Cruzain Triton – qHTS Assay for Promiscuous and Specific Inhibitors of Cruzain (with detergent); Cruzipain (Trypanosoma cruzi), P25779; purified cruzain, Z-FR-AMC fluorescence, 0.01% Triton; Potency, µM, inactives show max response, negative = inhibition, hits mostly inhibitors; 200,000 tested, 0.43% active; AID 1478, 2009;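 note: plate controls were neutral wells for no effect and buffer without enzyme for full effect; nearly all actives have a fitted effect of over 40% in size; top concentration of the series not given in the record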
# Target sequence (P25779 123-467 limits assumed): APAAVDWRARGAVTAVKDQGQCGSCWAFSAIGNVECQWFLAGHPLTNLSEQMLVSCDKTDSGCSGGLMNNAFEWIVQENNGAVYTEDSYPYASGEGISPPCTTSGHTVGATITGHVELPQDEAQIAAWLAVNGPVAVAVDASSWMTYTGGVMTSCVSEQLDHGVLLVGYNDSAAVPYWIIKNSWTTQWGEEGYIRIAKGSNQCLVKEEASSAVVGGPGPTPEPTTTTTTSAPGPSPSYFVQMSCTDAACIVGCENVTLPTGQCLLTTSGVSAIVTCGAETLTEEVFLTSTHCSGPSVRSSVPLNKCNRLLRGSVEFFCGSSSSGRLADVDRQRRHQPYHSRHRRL
#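 Purified cruzain (1.5 nM final) was preincubated with compounds for 15 min at room temperature in 100 mM sodium acetate pH 5.5, 5 mM DTT, 0.01% Triton X-100. Reaction started with 2 uM Z-FR-AMC; AMC fluorescence change over 60 s gave activity.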
# SARS PLP yeast – qHTS of Yeast-based Assay for SARS-CoV PLP. 330,000 tested, 0.19% active. AID 485353, 2010. S. cerevisiae expressing SARS-CoV PLpro, growth rescue; control for the full effect not named in the record. Potency, µM (titrated, usually from 32.9 µM), for the others: at the top dose activity, positive = growth rescue; active means well fitted rising curve with a large enough effect; inconclusive means small, poorly fitted or top-dose-only effect; inactive means no such curve, though single readings can be large or run the other way; note: 0% is about no effect; nearly all actives have a fitted effect of over 55% in size; growth read by luminescence after 48 h
# RE007 growth inh – qHTS Assay for Inhibitors of the HIV-1 protein Vpr | S. pombe RE007 Vpr strain, BacTiter-Glo ATP luminescence, 24 h; control for the full effect not named in the record | Potency, µM (doses to about 92.2 µM), without a hit: at the top dose activity change, negative = less growth | 360,000 tested, 0.21% active | AID 651644, 2012; active = well fitted falling curve with a large enough effect; inconclusive = small, poorly fitted or top-dose-only effect; inactive = no such curve, though single readings can be large or run the other way;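 note: % is set by controls: 0 for no effect and ±100 for the full control effect; nearly all actives have a fitted effect of over 50% in size; the assay follows cell death caused by Vpr and the record does not say whether a fall means rescue or toxicity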
#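 Fission yeast strain RE007, carrying one chromosomally integrated HIV-1 vpr copy, was seeded at OD 0.01 in PMG+AL medium with 23 nL pinned compound. After 24 h at 30 °C and 99% humidity, viability was read by BacTiter-Glo luminescence.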
# Lassa entry inh – qHTS for Inhibitors of binding or entry into cells for Lassa Virus; Lassa virus pseudotype entry inhibition, cell reporter; control for the full effect not named in the record; Potency, µM (doses to about 37.9 µM), for the others: at the highest dose activity change, negative = inhibition, hits mostly inhibitors; 300,000 tested, 1.2% active; active means well fitted inhibition curve with a large enough effect; inconclusive means small, poorly fitted or top-dose-only effect, or effect the other way; inactive means flat fitted curve, though single readings scatter; tested in HEK293 cells; note: % is set by controls: 0 for no effect and ±100 for the full control effect; nearly all actives have a fitted effect of over 50% in size; luciferase read-out
# NS1 inh – qHTS Assay for Inhibitors of Influenza NS1 Protein Function; AID 2326, 2010; 270,000 tested, 0.4% active; Potency, µM (series often up to 46.1 µM), inactives show at the top dose activity, positive = more growth; S. cerevisiae slowed by influenza A NS1, growth recovery by OD600; active means well fitted rising curve with a large enough effect; inconclusive means small, poorly fitted or top-dose-only effect; inactive means no such curve, though single readings can be large or run the other way; note: nearly all actives have a fitted effect of over 50% in size
#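 OD600 was taken as the measure of yeast growth restored by compound in an NS1-expressing S. cerevisiae strain. Cells had been washed out of glucose medium and diluted 1:100 into galactose -URA medium, pH 6.0.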
# Cruzain noTriton – qHTS Assay for Promiscuous and Specific Inhibitors of Cruzain (without detergent); Potency, µM, inactives show max response, negative = inhibition, actives largely listed as inhibitors; purified cruzain, Z-FR-AMC fluorescence, no detergent; 200,000 tested, 2.3% active; Cruzipain (Trypanosoma cruzi), P25779;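 note: plate controls were enzyme without inhibitor for no effect and buffer without enzyme for full effect; nearly all actives have a fitted effect of over 40% in size; top concentration of the series not given in the record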
#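 Purified cruzain at 1.5 nM, pre-incubated 15 min with compound at room temperature in 100 mM sodium acetate pH 5.5, 5 mM DTT, 0.00005% Triton X-100. Reaction started with 2 uM Z-FR-AMC; AMC fluorescence increase over 60 s gives rate.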
# 2A StopGo – High Throughput Screening for Foot and Mouth Disease Virus Antivirals; Potency, µM (doses to about 57.9 µM), for the others: at the top dose signal change, negative = less light; human cells with a luciferase reporter of 2A StopGo recoding; control for the full effect not named in the record; AID 1159524, 2015; 410,000 tested, 1.2% active; active = well fitted falling curve with a large enough effect; inconclusive = small, poorly fitted or top-dose-only effect; inactive = no such curve, though single readings can be large or run the other way; tested in HEK293T cells; note: % is set by controls: 0 for no effect and ±100 for the full control effect; nearly all actives have a fitted effect of over 45% in size; luciferase light after 4 h
# The depositor's hits bear a star; ? = inconclusive; / = not tested or not shown; & = joins results of further samples; [ ] = dose if it differs, or a comment. Unless noted, calls come from the whole dose curve; as a rule, active = well fitted curve in the direction sought with a large enough effect; inconclusive = small, poorly fitted or top-dose-only effect, or another doubt; inactive = no such curve, though single readings can be large; an effect the other way counts as inactive or inconclusive. Potency is the fitted concentration of half-maximal effect.
SMILES,Marburg entry inh,Cruzain Triton,SARS PLP yeast,RE007 growth inh,Lassa entry inh,NS1 inh,Cruzain noTriton,2A StopGo
Cn1c(SCC(=O)N2c3ccccc3Sc3ccccc32)nc2ccccc21,-52%,-3.4%,-5%,9%,-15%,30%,?,-26%
COc1ccc2oc(C(=O)OCC(=O)N3CCCC3=O)c(C)c2c1,14%,/,-9%,?,8%,/,/,36%[activator]
CCOC(=O)CSc1ccc(-c2nc3ccccc3[nH]2)cn1,19%,-5.9%,-2%,-23%,20%,-102%,-5%,11%
CCN(CC)C(=O)Oc1ccc2c(=O)c(-c3ccc(OC)cc3)coc2c1,-2%,-0.7%,4%,8%,-6%,-31%,-11%,/
COc1ccccc1N1CCN(C(=O)C(OC(C)=O)c2ccccc2)CC1 (stereo not drawn),?,-2.2%,5%,24%,?,0%,-1%,-26%
CCOC(=O)/C(=C/c1ccc(OC)cc1)NC(=O)c1ccco1,22%,-5.3%,12%,-1%,-1%,-3%,-3%,-4%
COc1ccc(N2CC(C(=O)Nc3nnc(SCc4ccccn4)s3)CC2=O)cc1 (stereo not drawn),8%,-9.2%,4%,7%,10%,4%,9%,-13%
O=C(Nc1ccccc1)c1snc2c(=O)[nH]cnc12,7%[46.1 µM],/,-1%,14%,-4%,5%,/,5%
Cc1ccccc1CCNCc1ccc(Br)cc1,?,2.8%,-3%,-8%,18%[46.1 µM],0%,8%,21%
COc1ccccc1CNC(=O)C(C)n1nc(C)n2c(cc3occc32)c1=O (stereo not drawn),?,/,-4%,-6%,13%[46.1 µM],13%,/,-4%
COc1ccc(N(C(=O)c2csnn2)C(C(=O)NC2CCCC2)c2ccccc2)cc1 (stereo not drawn),-3%[46.1 µM],/,1%,-5%,-4%,8%,/,7%
CCOC(=O)c1c(N)sc(C(=O)N(C)C)c1CN1CCOCC1,-12%,0.0%,5%,2%,8%,?,-5%,17%
CCc1cccc(C)c1NC(=O)CCS(=O)(=O)c1ccc2c(c1)oc(=O)n2C,/,-1.3%,/,/,-1%[46.1 µM],/,-19%,-11%
CCNC(=O)CC1SC(=Nc2ccccc2C)N(C)C1=O (stereo not drawn),6%,-0.6%,1%,-1%,-7%,-12%,1%,2%
O=C(c1ccccc1F)N(Cc1nc2ccccc2c(=O)[nH]1)C1CCCC1,/,/,-1%,0%,/,-1%,/,-19%
COc1ccc(CN(CC(=O)NCc2ccc(F)cc2)C(=O)c2csnn2)cc1,25%[46.1 µM],/,15%,2%,3%,?,/,10%
Cc1ccc(S(=O)(=O)c2nc(S(C)(=O)=O)sc2N2CCCC2)cc1,/,/,-2%,5%,/,-5%,/,29%
O=C(NC1CCCCC1NC(=O)c1cccs1)c1cccs1 (stereo not drawn),?,3.9%,0%,-11%,-11%,7%,-11%,10%
COc1ccc(CNC(=O)c2cnn(-c3ccc(C)cc3)c2-n2cccc2)cc1OC,/,-5.3%,/,/,-22%[46.1 µM],/,?,?
Cc1cc(C=C2C(=O)NC(=S)NC2=O)c(C)n1C1CCCC1,?,/,0%,-12%,7%[46.1 µM],/,/,-1%
CN(C)C(=O)Cn1c(SCC(=O)Nc2ccc3c(c2)OCO3)nc2ccccc21,-15%,0.5%,7%,15%,16%,-9%,3%,-22%
Cc1cccc(CN2CCC(C(=O)Nc3ccc(Oc4cccnc4)cc3)CC2)c1,?,/,-3%,-6%,11%,1%,/,0%
COc1ccc(OC)c(NC(=O)c2cc(OC(C)=O)cc(C(=O)Nc3cc(OC)ccc3OC)c2)c1,/,/,-6%,24%,/,12%,/,28µM*
CC(C)C(=O)N1CCC(CN=Cc2c(O)n(C3CCCCC3)c(=O)n(C3CCCCC3)c2=O)CC1,?,-6.9%,-9%,101%,14µM*,/,?,?
Cc1cccc(C)c1NC(=O)COC(=O)CSc1nnc(N)s1,?,-0.6%,-1%,4%,19%,4%,-17%,-18%
CC(=O)C(Cc1ccccc1)NC(=O)CN1CCc2ccccc2C1 (stereo not drawn),-19%[46.1 µM],/,-1%,4%,?,/,/,-10%
COc1cc2[nH]c(=O)n(CCC(=O)N3CCN(c4cccc(C)c4C)CC3)c(=O)c2cc1OC,-12%&-12%,-1.2%,-6%,6%,?,-4%,?,6%
COc1ccc(C(=O)Cc2ccc(OC)c(OC)c2)cc1,3%,3.2%,8%,-3%,34%,-10%,0%,/
COC(=O)c1cnn(-c2ccccc2)c1C(OC)OC,4%,/,1%,-5%,4%,0%,/,-5%
O=C(CCC(=O)N1CCSc2ccccc21)NC1CCCCC1,/,/,2%,0%,/,23%,/,-22%
Cc1cc(C)c(S(=O)(=O)N2CCN(C(=O)c3ccccc3OCc3c(C)noc3C)CC2)c(C)c1,-22%,/,/,-1%,?,/,/,-27%
COc1cc(N)c(Cl)cc1C(=O)OCC(=O)NC1CCCC1,15%[46.1 µM],/,-1%,3%,23%[46.1 µM],10%,/,25%
O=C(COc1ccccc1)NCc1n[nH]c(=S)n1-c1ccccc1,-4%[46.1 µM],/,0%,19%,1%,6%,/,1%
COc1ccc2nc3oc(C(=O)NCCCOC(C)C)cc3cc2c1,/,/,-1%,-16%,/,-4%,/,-3%
CCN(CC)CCN1C(=O)C(=O)/C(=C(/O)c2c(C)[nH]c(C(=O)OC)c2C)C1c1ccco1 (stereo not drawn),7%,-2.0%,-1%,13%,-25%,8%,-4%,15%
CCOc1ccc(CCNC(=O)COC(=O)CNS(=O)(=O)c2ccc(NC(C)=O)cc2)cc1OCC,-36%,/,-2%,-4%,13%,/,/,-14%
O=C(O)CC(CC(=O)Nc1ccc(C(=O)O)cc1)c1ccccc1 (stereo not drawn),/,/,1%,6%,/,0%,/,-9%
CCC(=O)NC(c1ccccc1Cl)c1c(O)ccc2ccccc12 (stereo not drawn),?,-7.1%,0%,-1%,-14%,2%,4%,0%
O=C(Nc1cc([N+](=O)[O-])ccc1N1CCCC1)c1cccs1,10%[46.1 µM],/,-2%,-19%,16%[46.1 µM],12%,/,-20%
Nn1c(SCc2nc3ccccc3[nH]2)nnc1-c1cccnc1,-1%,1.3%,0%,-1%,-1%,2%,-10%,8%
COc1ccc(C(=O)N2CCC(c3ccccc3)CC2)c(OC)c1OC,18%[46.1 µM],/,3%,16%,18%,/,/,3%
CCc1nn(CCCC(=O)N2CCN(c3cccc(C)c3C)CC2)c(=O)c2cc3occc3n12,/,/,-9%,8%,/,1%,/,?
CCOC(=O)c1ccccc1NC(=O)CN1CCC(n2nnc3cc(F)ccc32)CC1,-3%,/,/,9%,/,0%,/,?
COc1ccc(CNC2CCSc3ccccc32)cc1OC (stereo not drawn),?,/,0%,-19%,-14%,-3%,/,?
CCCCn1c(N)c(N(CCOC)C(=O)C2CCN(S(=O)(=O)c3ccc(F)cc3)CC2)c(=O)[nH]c1=O,18%,/,-3%,?,11%,/,/,-28%
CCCCn1c2nc3ccccc3nc2c2c(=O)n(CCC)cnc21,11%,2.9%,-1%,-2%,8%,-2%,11%,-2%
COc1ccc(Br)cc1CN1CCCCCC1,?,/,7%,2%,-9%[46.1 µM],6%,/,-16%
O=C(CCCn1c(=O)c2cccn2c2ccc(F)cc21)NCCc1ccccc1,/,-1.2%,/,/,-23%[46.1 µM],/,-11%,-4%
COc1ccc(Br)cc1S(=O)(=O)Nc1cc(-c2cn3ccccc3n2)ccc1C,-19%[46.1 µM],-5.3%,/,/,1%[46.1 µM],/,?,-17%
Cc1ccc(NC2Nc3cc(C)nn3S2)c(C)c1 (stereo not drawn),0%[46.1 µM],/,-2%,14%,-15%,/,/,79%[activator]
# Following part:
SMILES,Marburg entry inh,Cruzain Triton,SARS PLP yeast,RE007 growth inh,Lassa entry inh,NS1 inh,Cruzain noTriton,2A StopGo
COc1ccc(NC(=O)c2cccc(-n3c(C)ccc3C)c2)c(OC)c1,-9%,-3.0%,7%,-2%,-1%,24%,2%,-2%
CN(C)CCNC(=O)c1ccc(Cn2c(=O)c3cccn3c3cccnc32)cc1,/,-4.0%,/,/,?,/,-7%,-12%
Cc1ccc(C(=O)COC(=O)C2CC(=O)N(c3nc(-c4ccccc4)cs3)C2)cc1C (stereo not drawn),-2%,2.2%,-10%,-25%,?,7%,32µM*,-7%
Oc1cccc(Nc2nc(NCC3CCCO3)c3ccccc3n2)c1 (stereo not drawn),?,18µM*,-1%,1%,-24%,-11%,13µM*,0%
CN1CCN(S(=O)(=O)c2ccc(N3CCN(S(=O)(=O)c4cccs4)CC3)nc2)CC1,3%[46.1 µM],-18%,-7%,-8%,-1%,-1%,-5%,-21%
Cc1cnc(C(=O)OCC(=O)Nc2sc3c(c2C#N)CCC3)cn1,-16%,/,1%,-9%,-25%,/,/,-7%
O=C(COC(=O)Cc1ccc(Br)cc1)NC1CCCCCC1,4%[46.1 µM],/,-4%,?,2%,-4%,/,-8%
O=C(COC(=O)c1cc(-c2ccco2)nc2ccccc12)NCc1ccc2c(c1)OCO2,11%&11%,-16%,15%,5%,9%,-3%,2%,-10%
COc1ccccc1NC(=O)Nc1ccccc1C#N,2%,/,6%,12%,13%,-2%,/,7%
COc1ccc(OC)c(CN2CCC(Cc3ccccc3)CC2)c1,/,/,0%,2%,/,3%,/,-16%
CCN(CC)CCC(c1ccc(N(C)C)cc1)c1c(OC)cc(OC)c2ccc(=O)oc12 (stereo not drawn),/,/,0%,4%,/,-6%,/,-13%

# Another view of part of the listing above:
# Every second line gives: Marburg entry inh	Cruzain Triton	SARS PLP yeast	RE007 growth inh	Lassa entry inh	NS1 inh	Cruzain noTriton	2A StopGo
- Oc1cccc(Nc2nc(NCC3CCCO3)c3ccccc3n2)c1 (stereo not drawn)
 : ?	18µM*	-1%	1%	-24%	-11%	13µM*	0%
- CN1CCN(S(=O)(=O)c2ccc(N3CCN(S(=O)(=O)c4cccs4)CC3)nc2)CC1
 : 3%[46.1 µM]	-18%	-7%	-8%	-1%	-1%	-5%	-21%
